Compound activity (PubChem)
Rce1 inhib: inhibitors of yeast Ras-converting enzyme; actives 0.27% (n = 290,000); yeast membranes, quenched prenylated peptide cleavage fluorescence; calls only; Q03530; AID 2563;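 active = fall in fluorescence gain of 50% or more versus controls, with final raw signal at or below 3038400; inconclusive = same 50% fall but final raw signal above 3038400; inactive = fall in fluorescence gain under 50%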;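 also: plate controls were neutral control wells for no effect and wells lacking membranes for full effect; tested at 10 µM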
MT1-MMP act inh: inhibitors of human MT1-MMP activation; P50281; HT1080 RFP-PRO-GFP cells, GFP/RFP ratio fluorescence, overnight; percent of plate control window, DMSO zero; GFP/RFP ratio change, % at 20 µM; actives 0.061% (n = 360,000);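 active = GFP/RFP ratio change of at least 30% with cell ATP level not reduced by more than half and red fluorescence within 50% of control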; also: strong numbers were not always called active
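Assay system: HT1080 RFP-PRO-GFP cells. Benchmarks: DMSO vehicle wells and RFP-L50D-GFP reporter cell wells. Times: overnight cell settling, then overnight compound exposure, 37 °C, 5% CO2. Compound: 20 µM single dose, 1% DMSO. Read-out basis: GFP/RFP fluorescence ratio.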
eIF4H FP inh: inhibitors of RNA binding by human eIF4H; eIF4H fluorescence polarization binding assay; inhibition, % at 35 µM; actives 0.94% (n = 290,000); Q15056;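 active = 50% or more with normal probe brightness, or confirmed in later tests; inconclusive = above 50% with abnormal brightness, or retests that disagree; inactive = below 50% or failed in later tests; about a fifth of its hits are not listed in these tables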;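 also: calls also rest on retests at 20 µM and on dose response follow-up; 0% = protein and probe with vehicle and 100% = probe without protein; strong numbers were not always called active; many hits fall short of the cut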
HIV Env fusion: HIV envelope-mediated fusion inhibition | HeLa-JRFL Env/CEM21 cell fusion, luciferase | inhibition, % at 12.3 µM | actives 1.1% (n = 360,000);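 active = mean replicate inhibition score of at least 50 and every replicate individually at or above 50; inconclusive = only one of the two criteria met; inactive = mean below 50 and not all replicates reaching 50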;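 also: 0% = plate neutral controls and 100% = maraviroc near 300 nM; one replicate is shown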
PABP FP inh: PABP-poly(A) binding inhibition; P11940; PABP-poly(A) RNA binding, fluorescence polarization; inhibition, % at 35 µM; actives 1% (n = 290,000); AID 2014;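 active = 50% or more with normal probe brightness, or confirmed in later tests; inconclusive = above 50% with abnormal brightness, or retests that disagree; inactive = below 50% or failed in later tests; about a fifth of its hits are not listed in these tables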;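 also: calls also rest on retests at 20 µM and on dose response follow-up; controls were probe without protein and protein plus probe with vehicle; some compounds called inactive have numbers as strong as hits; many hits fall short of the cut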
Target sequence (P11940 whole entry, looked up): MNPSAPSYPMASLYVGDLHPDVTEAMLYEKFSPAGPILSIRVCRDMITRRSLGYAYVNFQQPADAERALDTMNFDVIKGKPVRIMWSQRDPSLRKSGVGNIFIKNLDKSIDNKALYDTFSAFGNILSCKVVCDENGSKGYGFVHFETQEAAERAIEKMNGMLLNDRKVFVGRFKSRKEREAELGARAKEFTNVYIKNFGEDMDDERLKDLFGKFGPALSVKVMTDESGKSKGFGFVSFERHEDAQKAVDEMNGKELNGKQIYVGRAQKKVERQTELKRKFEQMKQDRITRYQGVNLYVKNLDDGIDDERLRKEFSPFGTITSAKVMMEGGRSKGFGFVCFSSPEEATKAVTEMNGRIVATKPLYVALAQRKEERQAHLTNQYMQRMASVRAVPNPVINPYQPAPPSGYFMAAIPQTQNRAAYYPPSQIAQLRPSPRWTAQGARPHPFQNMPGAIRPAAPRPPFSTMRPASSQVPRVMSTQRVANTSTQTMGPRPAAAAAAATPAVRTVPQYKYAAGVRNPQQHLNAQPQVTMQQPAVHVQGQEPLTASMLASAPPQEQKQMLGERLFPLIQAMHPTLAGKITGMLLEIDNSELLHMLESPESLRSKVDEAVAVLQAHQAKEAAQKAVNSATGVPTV
Yeast UUG start: alters start codon recognition fidelity in yeast; S. cerevisiae UUG-firefly luciferase reporter, luminescence/redox ratio; activity score, % at 18.7 µM; actives 0.13% (n = 350,000);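 active = replicate mean at a twofold rise or more, about +100% in these data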;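 also: firefly luciferase made from a UUG start codon reports start codon fidelity; reporter light over untreated wells divided by growth signal over untreated wells; some hits fall short of that in this replicate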
CSC inhib: blocks cancer stem cells. cancer stem cell-like cells viability, luminescence. inhibition, % at 7.5 µM. actives 1.1% (n = 300,000);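 active = mean at 75% or more and at least half the replicates too; inconclusive = mean and replicates disagree; tested in HMLE shEcad cells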;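 also: 0% = median of negative and 100% = median of positive control wells; the first replicate is given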
eIF4H FP inh retest: recorded beside eIF4H FP inh, whose call it bears; inhibition, %; compound at 20 µM; confirmation average;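 mean of two retest wells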
PABP FP inh retest: second read-out of PABP FP inh, no call of its own (marks repeat the call); inhibition, %; compound at 20 µM; confirmation repeats;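 mean of two retest wells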
MT1-MMP act inh RFP: also measured in MT1-MMP act inh; calls as there; RFP signal change, %; measured here: RFP expression control read;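 0 = vehicle wells; hits needed this value within 50% of zero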
Active calls of the source: *; i = inactive; ? = inconclusive; · = no result given. Hits appear at their usual frequency. About 2.9% of those tested had a hit in this group.

SMILES	Rce1 inhib	MT1-MMP act inh	MT1-MMP act inh RFP	eIF4H FP inh	HIV Env fusion	PABP FP inh	Yeast UUG start	CSC inhib	others
CCOC(=O)CNC(=O)c1nn(-c2ccc(OCC)cc2)c(=O)c2ccccc12	·	-2	3	2	·	-3	119*	-8
COc1ccc(OCC2CNC(=O)O2)cc1 (centres undefined)	i	1	3	7	3	-2	·	-11
Cc1cccc(S(=O)(=O)NCCNS(=O)(=O)c2cccc(C)c2)c1	i	-1	-5	2	14	-7	-11	-11
COc1ccc(CNC(=O)c2ccc3ccccc3n2)cc1OC	i	3	-17	-5	27	-5	15	8
CCOc1ccc(NC(=O)CN(C)C(=O)c2cn3ccccc3n2)cc1OCC	i	1	0	·	12	·	-8	-3
COc1ccccc1/C=C/CN1CCN(Cc2ccc(C)o2)C(CCO)C1 (centres undefined)	i	-1	0	8	2	-9	0	3
CCc1sc(NC(=O)c2cc3ccccc3oc2=O)nc1-c1cccs1	i	-1	-4	4	-13	0	-14	·
COc1ccc(CCNC(=O)c2ccc3c(c2)NC(=O)C(CSCc2cc(C)ccc2C)N3)cc1OC (centres undefined)	i	·	·	1	·	8	·	-12
COc1ccccc1-c1c(C)nn2c(N3CCOCC3)cc(C)nc12	i	0	-1	5	8	5	-7	4
COc1ccccc1CCc1nnc(CCC(=O)NCCCOc2cccnc2)o1	i	0	4	-7	17	3	-16	5
CCOc1cc(/C=C/c2cccc[n+]2C)ccc1O	i	1	2	-10	-7	25	-17	-14
COC(=O)C(NC(=O)c1c(C)nn(C)c1Cl)c1ccccc1 (centres undefined)	i	1	-2	-6	15	-5	-15	-9
CN(CC(=O)Nc1cccc(Cl)c1)S(=O)(=O)/C=C/c1ccccc1	·	4	0	·	3	·	3	·
CCN1CCCC1CNC(=O)C(=O)NC (centres undefined)	i	0	1	0	12	2	-4	2
O=C1COc2ccc(S(=O)(=O)NCCc3ccccc3)cc2N1	i	-1	1	-4	5	-6	-3	-2
CC(OC(=O)c1cccnc1)C(=O)NCc1ccc2c(c1)OCO2 (centres undefined)	i	-1	4	3	-31	1	·	-8
CCCS(=O)(=O)N1CCCC(C(=O)NCCN(CC)CC)C1 (centres undefined)	i	2	4	-1	·	0	-11	-11
O=C(Nc1cccc(Cl)c1)c1ccncc1	i	0	-6	-8	·	0	-22	-6
CCOc1ccc(N2C(=O)c3cccnc3C2Nc2ccc(C)cc2)cc1 (centres undefined)	i	-1	0	-3	·	0	-5	-1
Cc1nc(C(C)N(C)Cc2c(C(=O)N3CCCCC3)nc3c(C)cccn23)c(C)s1 (centres undefined)	i	4	4	0	4	-4	·	-4
COc1ccc(C)cc1NCc1cc(=O)oc2cc(-c3ccccc3)c(O)cc12	i	4	2	0	-12	6	·	39
Cc1nn(Cc2ccc(Cl)cc2)c(C)c1NC(=O)c1noc2c1CCc1ccccc1-2	i	-5	-18	-6	-1	-4	-13	10
O=C(CNC(=O)OCc1ccccc1)NCC(=O)N1CCCC1C(=O)OCc1ccccc1 (centres undefined)	i	2	3	-2	·	-8	·	-1
O=C(NCC1CCCO1)c1cccc(Oc2c(Cl)cccc2[N+](=O)[O-])c1 (centres undefined)	i	-1	-15	-4	-7	7	6	-8
Cc1ccoc1C(=O)NCc1occc1C(=O)O	i	3	6	74*	-90	48	-7	4	eIF4H FP inh retest=79*;PABP FP inh retest=44
CCN(CCN1CCCC1)C(=O)c1cc(COc2ccccc2SC)on1	i	-3	-3	-11	-18	-15	0	-17
CC(C)c1ccc(NC(=O)c2cccc(Br)c2)cc1	i	1	2	8	-61	-1	-23	21
CCOC(=O)c1c(C)c(C(=O)NC(C)COC)c(C)n1CC (centres undefined)	i	4	-1	4	·	5	2	·
Cc1ccccc1OCC(=O)OCC(=O)NC12CC3CC(CC(C3)C1)C2	·	-1	-2	·	3	·	-12	·
COc1ccc(NC(=S)NCCC(c2ccccc2)c2ccccc2)c(OC)c1	i	2	-9	0	·	2	-10	10

Brought forward from above: 3 compounds; new compounds follow.
SMILES	Rce1 inhib	MT1-MMP act inh	MT1-MMP act inh RFP	eIF4H FP inh	HIV Env fusion	PABP FP inh	Yeast UUG start	CSC inhib	others
CCOC(=O)c1c(C)c(C(=O)NC(C)COC)c(C)n1CC (centres undefined)	i	4	-1	4	·	5	2	·
Cc1ccccc1OCC(=O)OCC(=O)NC12CC3CC(CC(C3)C1)C2	·	-1	-2	·	3	·	-12	·
COc1ccc(NC(=S)NCCC(c2ccccc2)c2ccccc2)c(OC)c1	i	2	-9	0	·	2	-10	10
O=C(Nc1ccc(Cl)c([N+](=O)[O-])c1)Nc1nc2ccccc2s1	i	·	·	5	·	5	·	81*
c1ccc(N2CCCCC2)c(NC2=NCCC2)c1	i	2	11	-5	·	17	-15	1
O=C1Nc2ccc(Cl)cc2C(=O)C1(F)c1ccccc1 (centres undefined)	i	6	6	-3	-1	5	-11	-3
NS(=O)(=O)c1ccc(CNC(=O)NC23CC4CC(CC(C4)C2)C3)cc1	i	6	-1	28	·	-4	·	-8
COCc1nnc(NC(=O)c2ccc(S(=O)(=O)N3CCCc4ccccc43)cc2)o1	i	-4	-6	20	24	-2	·	50
Cn1c(C(=O)N2CCCC(C(=O)N3CCN(C(=O)c4ccco4)CC3)C2)cc2sccc21 (centres undefined)	·	1	-4	-9	20	0	5	0
Cc1ccc(NC(=O)COC(=O)CCc2nc3ccccc3c(=O)[nH]2)c(Br)c1	i	-2	0	8	-5	-26	-10	11
Cc1[nH]c2ccc(C(=O)N3CCN(c4ccccn4)CC3)cc2c1C	i	-2	-3	4	4	5	5	-13
CC(C)(C)[C@@H]1C=C(C(=O)Nc2ccccc2)O[C@H](OCc2ccc(CO)cc2)C1	i	3	-4	-3	97*	6	-2	22
O=C(Nc1cccc(NC(=O)c2ccccc2Cl)c1)c1ccc(F)cc1	i	0	-4	-5	12	3	-10	-12
N#CCSc1n[nH]c2nc3c(c(=O)n12)C1(CCCCC1)Cc1ccccc1-3	i	1	-9	12	-11	10	-12	45
CCOP(=O)(OCC)c1nc(-c2ccc(Cl)cc2)oc1NCc1ccccc1	i	-3	-6	-4	9	4	·	7
CCOc1ccc(N2C(=O)C3ON(C)C(c4ccc([N+](=O)[O-])cc4)C3C2=O)cc1 (centres undefined)	i	4	0	-6	-16	-3	-4	-15
O=C1C2C3C=CC([C@@H]2C(=O)N1C1CCCCC1)[C@H]1C(=O)N(C2CCCCC2)C(=O)C31 (some centres undefined)	i	-6	2	-8	-2	4	-14	0
Cc1cc(=O)oc2cc(OCC(=O)N(C)C3CCS(=O)(=O)C3)c(Cl)cc12 (centres undefined)	i	5	4	-1	2	0	6	-9

Filtered by structure, the entries above containing bromine.
SMILES	Rce1 inhib	MT1-MMP act inh	MT1-MMP act inh RFP	eIF4H FP inh	HIV Env fusion	PABP FP inh	Yeast UUG start	CSC inhib	others
CC(C)c1ccc(NC(=O)c2cccc(Br)c2)cc1	i	1	2	8	-61	-1	-23	21
Cc1ccc(NC(=O)COC(=O)CCc2nc3ccccc3c(=O)[nH]2)c(Br)c1	i	-2	0	8	-5	-26	-10	11

Next records.
SMILES	Rce1 inhib	MT1-MMP act inh	MT1-MMP act inh RFP	eIF4H FP inh	HIV Env fusion	PABP FP inh	Yeast UUG start	CSC inhib	others
O=C(N/C(=C\c1ccccc1)C(=O)N1CCCCC1)c1ccc(Br)o1	i	-3	2	5	8	5	2	·
Clc1ccc(CNc2nnnn2-c2ccccc2)c(Cl)c1	i	-1	-8	5	·	-5	-33	0
O=C1CCN(S(=O)(=O)c2ccccc2)CCN1CCOCc1ccc(C(F)(F)F)cc1	i	6	-18	-6	31	7	-11	-1
c1ccc(C2CC(c3cccs3)Nc3nnnn32)cc1 (centres undefined)	i	-7	0	-11	-12	-10	·	-11
CN(C)S(=O)(=O)c1cccc(C(=O)Nc2n[nH]c(C(F)(F)F)n2)c1	i	0	1	-10	11	1	-12	1
COc1cccc(NC(=S)Nc2ccc(O)cc2)c1	i	7	2	5	13	10	-18	-3
CCN(CC)c1ccc(/C=N/NC(=O)CCC(=O)NCc2ccccc2)c(O)c1	i	-7	-4	15	20	9	·	82*
CC(=O)NC12CC3CC(C1)CC(C(=O)NCC(=O)Nc1c(C)cc(C)cc1C)(C3)C2	·	-1	3	·	·	·	-15	5
CCCn1c(=O)[nH]c(=O)c2c(C(=O)OCC)cc(-c3cccs3)nc21	i	2	1	37	5	4	5	-9
Cc1ccc(C(=O)O/N=C(\N)c2cccnc2)cc1[N+](=O)[O-]	i	0	3	0	-23	1	·	10
CC(C)CNC(=O)C1CCN(c2ccc(S(=O)(=O)N3CCOCC3)cc2[N+](=O)[O-])CC1	i	-4	-5	-1	11	-4	·	-10
O=C(O)CN1C(=O)CSC1=S	i	16	16	1	1	2	-11	4
Cn1c(COc2ccc3ccccc3c2)nnc1SCC(N)=O	i	-1	3	1	-24	-2	2	-16
COc1cccc(CNc2nc3ccccc3n2C)c1O	i	-2	-2	-5	-8	-6	-20	-5
Cc1ccc(NC(=O)C2(N(C(=O)Cn3nnnc3N)c3ccc(C)cc3)CCCCC2)cc1	i	-5	-6	-1	-6	-6	-7	7
CC1CCCC(C)N1C(=O)COC(=O)COc1ccc(C#N)cc1 (centres undefined)	·	2	3	·	·	·	-17	2
CC(C)c1ccc(/C=N/NC(=O)C(=O)NCCCN2CCOCC2)cc1	i	-5	-3	-7	-9	2	-8	3
COc1ccc(NC(=O)c2csc(Cc3ccccc3)n2)cc1	i	-3	-6	-4	18	5	-20	-5
O=C(NCCCn1ccnc1)/C(=C/c1ccc(Cl)cc1)NC(=O)c1ccccc1	i	-1	1	-10	-4	-2	·	-13
CCCC(C)NC(=O)Cc1ccc(S(=O)(=O)N2CCOCC2)s1 (centres undefined)	·	4	5	·	-6	·	-4	-7
C[C@H](NCCc1ccc(O)cc1)[C@H](O)c1ccc(O)cc1	·	1	5	·	21	·	-5	-5
CC1CCN(C(=S)c2cn(Cc3ccc(F)cc3)c3ccccc23)CC1	i	-17	-12	0	-4	-6	-3	25
CN1CCc2c1nc1ccccc1c2N=C1CCCN1Cc1ccccc1	·	3	2	-8	25	-1	·	-1
CC(=O)N1N=C(c2ccc(C)o2)CC1c1cccc(F)c1 (centres undefined)	i	-4	-4	-11	9	-3	-5	-11
COc1cc(NC(=O)CSc2nnnn2C2CCCC2)cc(OC)c1	i	2	-3	-1	2	8	-8	-5
O=C(CSc1ccc(-c2cccnc2)nn1)Nc1ccc(F)c(F)c1	i	4	-23	4	-8	12	0	-11
NC(=O)NC(=O)CSc1ccccc1	i	2	3	5	4	10	·	7
CN(C)N1C(N)=C(C#N)C(c2ccsc2)C2=C1CC(C)(C)CC2=O (centres undefined)	i	-2	-6	-7	-6	0	-20	2
O=C(c1cccs1)N1CCN(Cc2cccc([N+](=O)[O-])c2)CC1	i	-2	-4	8	6	-6	·	2
O=C(CCN1C(=O)c2ccccc2S1(=O)=O)Nc1cccc(F)c1	i	1	-3	·	6	·	0	1
Cc1cnc(NC(=O)CC2CCCC2)s1	i	-8	-8	5	-1	-4	·	-21
CCc1ccc(/C=C2\Oc3c(ccc(O)c3CN3CCN(CCO)CC3)C2=O)cc1	i	-6	-2	?	5	?	-10	1
Cn1cnnc1Sc1nc([N+](=O)[O-])nn1C	i	0	4	3	13	1	·	-10
COc1ccc(-c2nn(-c3ccccc3)cc2CN(C)CCn2ccnc2C)c(F)c1	i	0	0	3	8	-1	5	11
